Assay outcomes as filed in PubChem.
AID923: qHTS Assay for Allosteric/Competitive Inhibitors of Caspase-1: Spectroscopic Profiling in AFC Spectral Region; actives 1.1% (n = 75,000); compound fluorescence, AFC spectral region (405/520 nm); almost no hit is shown here; Potency, µM (highest dose often 57.5 µM), for the others: top-dose fluorescence increase, actives largely listed as activators; active means well fitted activation curve with a large enough effect; inconclusive means small, poorly fitted or top-dose-only effect;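 further: potency means the concentration at half of the fitted maximal effect; 0% is about no effect; scaled to a free AFC standard on each plate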
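Baseline compound fluorescence (AFC region, 405 nm ex/520 nm em) taken from the intercept of kinetic reads with 50 nM caspase-1 and 5 uM Ac-WEHD-AFC; normalized to an on-plate AFC standard curve; compounds titrated up to 57 uM.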
A488 fluor: qHTS Assay for Spectroscopic Profiling in A488 Spectral Region. compound autofluorescence, A488 spectral region, dye equivalency; stronger effect = higher value. max dye equivalency, M. actives 0.1% (n = 59,000). AID 591, 2007; active = above 10 nM dye equivalent; inconclusive = 1 to 10 nM; inactive = 1 nM or less; about half of its hits are not listed in these tables;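 further: highest value over a series up to 38 µM; compound alone in buffer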
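Read-out: relative fluorescence at 480/540 nm, expressed as Alexa 488 dye-equivalent concentration from a six-point A488 standard included per plate. Conditions: 100 mM Tris, pH 8.0; 15 min incubation, room temperature.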
TSHR agonist: qHTS Assay for Agonists of the Thyroid Stimulating Hormone Receptor; Thyrotropin receptor (Homo sapiens), P16473; HEK293-CNG-TSHR cells (CNG channel as cAMP sensor), membrane potential dye, cAMP; Potency, µM (series often up to 57.1 µM), for the others: at the highest dose activation, most hits filed as activators; actives 0.48% (n = 73,000); active = well fitted activation curve of enough size with the parental cells flat; inconclusive = any curve in the parental cells; inactive = parental cells flat and receptor cells flat or falling; further: potency means the concentration at half of the fitted maximal effect; % of control where 0% means no effect; weak receptor curves with flat parental cells got no call and are not listed
Target sequence (P16473 whole entry, looked up): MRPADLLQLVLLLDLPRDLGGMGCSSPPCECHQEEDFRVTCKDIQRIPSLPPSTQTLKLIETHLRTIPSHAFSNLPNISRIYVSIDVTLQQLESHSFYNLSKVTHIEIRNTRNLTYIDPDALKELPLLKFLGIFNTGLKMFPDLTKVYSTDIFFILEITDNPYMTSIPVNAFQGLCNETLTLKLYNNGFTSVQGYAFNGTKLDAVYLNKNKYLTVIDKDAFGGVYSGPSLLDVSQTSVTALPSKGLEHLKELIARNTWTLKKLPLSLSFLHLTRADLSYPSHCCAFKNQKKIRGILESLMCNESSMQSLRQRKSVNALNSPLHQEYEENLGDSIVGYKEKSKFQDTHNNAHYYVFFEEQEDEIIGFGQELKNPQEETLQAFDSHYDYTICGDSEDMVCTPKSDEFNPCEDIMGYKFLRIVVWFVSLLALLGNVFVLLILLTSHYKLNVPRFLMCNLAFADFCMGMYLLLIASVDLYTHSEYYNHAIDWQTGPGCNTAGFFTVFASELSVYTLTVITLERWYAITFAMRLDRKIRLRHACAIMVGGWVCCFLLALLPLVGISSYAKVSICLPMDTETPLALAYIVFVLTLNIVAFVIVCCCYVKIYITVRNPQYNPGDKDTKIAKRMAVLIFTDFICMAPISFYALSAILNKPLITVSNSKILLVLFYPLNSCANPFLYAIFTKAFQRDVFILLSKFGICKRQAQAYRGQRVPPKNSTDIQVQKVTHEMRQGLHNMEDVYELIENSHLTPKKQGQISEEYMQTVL
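HEK 293 cells stably expressing TSHR and a cAMP-gated CNG channel; parental CNG-only cells as counterscreen. Cells preloaded 60 min with membrane potential dye plus 100 uM RO 20-1724, then compound 30 min; fluorescence read at 590 nm.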
Resorufin fluor: qHTS Assay for Spectroscopic Profiling in Resorufin Spectral Region | Compound fluorescence, resorufin region 547/598 nm, buffer; stronger effect = higher value | max dye-equivalent concentration, M | actives 0.04% (n = 59,000) | AID 588, 2007; active = above 10 nM dye equivalent; inconclusive = 1 to 10 nM; inactive = 1 nM or less; a few of its hits are not listed in these tables; further: highest value over a series up to 38 µM
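Read-out: intrinsic compound fluorescence at ex 547/em 598 nm after 15 min at RT in pH 8.0 Tris (100 mM). Values expressed as resorufin-equivalent concentration from per-plate standard series.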
A647 autofl: qHTS Assay for Spectroscopic Profiling in A647 Spectral Region. AID 592, 2007. max dye-equivalent concentration, M. Compound fluorescence, A647 channel (570/671 nm), Tris buffer. 59,000 tested, under 10 active; active means above 1 µM dye equivalent; inconclusive means 0.1 to 1 µM; inactive means 0.1 µM or less;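 further: values scaled relative to a standard on each plate; highest value over a series up to 38 µM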
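Each compound's intrinsic fluorescence at 570 nm excitation and 671 nm emission is measured across its concentration series in 100 mM Tris, pH 8.0, after 15 min at room temperature, and reported relative to an A647 curve.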
* hit, by the source's call; i = inactive; u = inconclusive; x = not tested or not shown; & = joins results of further samples; [ ] = another dose, or the depositor's remark. Some of the compounds tested. The share of hits here may be higher or lower than overall.

entry | canonical_smiles | AID923 | A488 fluor | TSHR agonist | Resorufin fluor | A647 autofl
1 | C=CCn1c(SCC(=O)N2CCN(C(=O)c3ccco3)CC2)nc2sc(CC)cc2c1=O | 6.6% | i | 3% | i | 2.5e-09
2 | Nc1nc(CN2CCN(Cc3ccc4c(c3)OCO4)CC2)nc(Nc2ccccc2)n1 | 0.4% | i | 2% | i | 1e-09
3 | COc1ccc(CNC(=O)C2CSCCS2)cc1 (configuration not stated) | 0.3% | i | -2% | i | 2.9e-08
4 | O=S(=O)(NCCC1=CCCCC1)c1cccc(S(=O)(=O)N2CCOCC2)c1 | 2.0% | i | 11% | i | 8.3e-09
5 | Cc1cc(C)cc(NS(=O)(=O)c2ccc3[nH]c(=O)[nH]c3c2)c1 | -1.3% | i | 10% | i | 8e-08
6 | CC(C)CNC(=O)c1cc(-c2ccco2)on1 | -1.2% | i | -1% | i | 2.1e-09
7 | CCCc1ccc(Oc2c(-c3ccc(O)c(C)c3O)n[nH]c2C)cc1 | -3.4% | x | u | x | x
8 | COc1ccc(CC(=O)OCc2nnc(C3COc4ccccc4O3)o2)cc1OC (configuration not stated) | 1.0% | i | 5% | i | 1e-09
9 | Cc1cccc(CNc2ncncc2-c2cccc(C#N)c2)c1 | -0.5% | i | 18% | i | 1e-09
10 | CCOC(=O)c1[nH]c(C)c(C(=O)Nc2cc(OC)ccc2OC)c1C | 0.0% | i | 5%[11.4 µM] | i | 1e-09
11 | COc1ccc(CC(=O)N2CC(=O)N(CCc3ccccc3)C(=O)C2)cc1 | 0.1% | i | -4% | i | 7.2e-09
12 | COc1ccc(-n2c(Cc3cccn3C)nnc2SCC(=O)Nc2nc(C)cs2)cc1 | -0.7% | x | 7% | x | x
13 | COCC(=O)N1CCC2(CCCN(Cc3ccccc3OC)C2)CC1 | 0.3% | i | -4% | i | 1e-09
14 | O=P(O)(c1ccccc1)c1ccccc1O | x | i | x | i | 2.5e-08
15 | CCOc1cc(C2NC(=O)N(C)C(C)=C2C(=O)OC)cc(Br)c1O (configuration not stated) | 3.3% | i | 14% | i | 3e-08
16 | COC(=O)Cn1cc(C(=O)OC)cc(Br)c1=O | x | i | x | i | 1.9e-08
17 | Cn1cnc([N+](=O)[O-])c1Sc1ncnc2nc[nH]c12 | -0.1% | i | -8% | i | 4.5e-09&2.3e-09
18 | C[N@@+]1(Cc2ccc(Cl)c(Cl)c2)CCC[C@@H]1c1ccc[n+](Cc2ccc(Cl)c(Cl)c2)c1 | -2.4%[11.5 µM] | i | -1%[11.4 µM] | i | 5e-08
19 | CCn1cc(C(=O)NCc2ccc3c(c2)OCO3)c(=O)c2cc(S(=O)(=O)N3CCOCC3)ccc21 | 1.7% | i | -9% | i | 1e-09
20 | CCN1C(=O)[C@H]2[C@H]3[C@H](O)[C@H](O)C/C(=N/OC/C=C(\C)CCC=C(C)C)[C@H]3CC[C@@H]2C1=O | 6.3%[11.5 µM] | x | 10%[11.4 µM] | x | x
21 | O=C(NCc1ccco1)c1ccc(COCC(F)(F)F)cc1 | 0.3% | i | -1% | i | 1e-09
22 | CCOC(=O)N1CCC(Nc2c(-c3ccc(C)cc3)c(=O)c2=O)CC1 | 2.7% | i | -3% | i | 3.4e-08
23 | CCn1c(=O)cc(OCC(=O)Nc2ccccc2C#N)c2ccccc21 | -4.3% | x | 5% | x | x
24 | Cc1ccc(S(=O)(=O)N2CCCN(S(=O)(=O)c3ccc(C)cc3)CC2)cc1 | 1.7% | i | 19% | i | 1e-09
25 | CCOC(=O)N1CCN(S(=O)(=O)c2c(C)[nH]c(=O)[nH]c2=O)CC1 | 11% | i | 22%[11.4 µM] | i | 7e-09
26 | Cc1ccc(-c2ccc(/C=N/n3cnnc3)o2)cc1Cl | 9.0% | x | 16% | x | x
27 | COc1cc(C2C(C#N)=C(C)NC3=C2C(=O)c2ccccc23)cc(OC)c1OC (configuration not stated) | -1.2% | i | -1% | i | 8.3e-09
28 | CC(O)CNc1nc2c(c(=O)n(C)c(=O)n2C)n1Cc1cccc(Br)c1 (configuration not stated) | 0.9% | i | 2% | i | 2.7e-08
29 | COc1cccc(C(=O)CSc2nnc(-c3ccco3)n2CC2CCCO2)c1 (configuration not stated) | 1.6% | i | 1% | i | 1e-09
30 | CCOc1cc2[nH]c(=O)n(CC3CCC(C(=O)NC(C)CC)CC3)c(=O)c2cc1OCC (configuration not stated) | 1.8% | i | u | i | 1.1e-08
31 | CCCCNc1c(C(=O)OCC)c(=O)[nH]c2ccccc12 | -0.3% | i | 5% | i | 1e-09
32 | O=C(CSc1nc2ccccc2[nH]1)N1CCN(c2ccccc2)CC1 | -3.8% | x | 3% | x | x
33 | CCOC(=O)N1CCC(NC(=O)C2CCCN2C(=O)OCc2ccccc2)CC1 (configuration not stated) | -1.1% | i | 4%[11.4 µM] | i | 1e-09
34 | CSc1ccccc1C(=O)Nc1cccc(C(C)O)c1 (configuration not stated) | 1.9% | i | 1% | i | 1e-09
35 | COc1ccc(-c2nnn(CC(=O)c3ccccc3)n2)cc1OC | -0.3% | i | 12% | i | 1e-08
36 | COc1ccc(OC)c(NC(=O)CCN2CCC(C)CC2)c1 | 0.3% | i | -2% | i | 2e-08
37 | CS(=O)(=O)N(CC(=O)NCCSc1ccc(Cl)cc1)c1ccc2c(c1)OCO2 | -1.9% | i | 10% | i | 7e-08
38 | COc1ccccc1N(CN1CCCC1=O)C(=O)c1c(F)cccc1F | -0.5% | i | 4% | i | 3.5e-08
39 | Cn1nc(C(=O)NCc2ccccn2)c2ccccc2c1=O | 5.4% | i | 3% | i | 1e-09
40 | COC(=O)[C@@]1(Cc2ccc(F)cc2)[C@H]2c3cc(C(=O)N(C)C)n(Cc4ccc(C)c(F)c4F)c3C[C@H]2CN1C(=O)c1ccccc1 | 0.9% | x | u | x | x
41 | Nc1nnnn1N=C1CCCCC1 | x | i | x | i | 5.7e-09
42 | CCCCC(CC)CNC(=O)c1ccc2c(c1)OCO2 (configuration not stated) | -0.6% | x | u | x | x
43 | CC(=O)/C=C(/C)NC(Cc1c[nH]c2ccccc12)C(=O)O (configuration not stated) | 2.2% | i | -1% | i | 3.7e-09
44 | Cc1ccc(-n2nnnc2SCC(=O)N2CCc3ccccc3C2)c(C)c1 | -0.1% | i | u | i | 1.4e-09
45 | O=C(CN1CCCC1=O)NC1(C(F)(F)F)NC(=O)N(Cc2ccccc2)C1=O (configuration not stated) | -2.0% | i | 6% | i | 2.3e-09
46 | O=c1c(-c2ccc(F)c(F)c2)nc2cncnc2n1Cc1ccccc1 | 3.7% | i | -26% | i | 3.3e-08
47 | Nc1nc(SCC(=O)C23CC4CC(CC(C4)C2)C3)n[nH]1 | -2.1% | i | -4% | i | 2.6e-08
48 | CCn1c2ccccc2c2cc(NC(=O)c3ccco3)ccc21 | 3.4% | x | 26% | x | x

Profiles as entered above:
`CS(=O)(=O)N(CC(=O)NCCSc1ccc(Cl)cc1)c1ccc2c(c1)OCO2` as listed: AID923: -1.9%; A488 fluor: i; TSHR agonist: 10%; Resorufin fluor: i; A647 autofl: 7e-08
`CSc1ccccc1C(=O)Nc1cccc(C(C)O)c1` (configuration not stated) as listed: AID923: 1.9%; A488 fluor: i; TSHR agonist: 1%; Resorufin fluor: i; A647 autofl: 1e-09

Additional records.
entry | canonical_smiles | AID923 | A488 fluor | TSHR agonist | Resorufin fluor | A647 autofl
49 | CC(=O)C(C(C)=O)C(NC(=O)c1cccnc1)(C(F)(F)F)C(F)(F)F | -1.2% | i | -3%[11.4 µM] | i | 1e-09
50 | O=C(Cn1cnc2ccccc21)Nc1cc(C(F)(F)F)ccc1N1CCOCC1 | -0.4% | i | u | i | 3.2e-08
51 | O=C(Nc1ccc2c(c1)OCO2)C1Cc2ccccc2CN1S(=O)(=O)c1cccs1 (configuration not stated) | 3.2% | i | 16% | i | 1.6e-08
52 | O=C(CCCCn1c(=O)c2ccccc2n(CC(=O)Nc2ccc(F)cc2)c1=O)NCc1ccco1 | -0.1% | i | 7%[11.4 µM] | i | 1e-09
53 | Cc1nn(C)c(C)c1S(=O)(=O)N(CC(=O)NCCN1CCOCC1)c1ccc(C(C)C)cc1 | -2.4% | x | 3% | x | x
54 | O=C(Cc1ccccc1)Nc1ccc(NC(=O)C2CC2)nc1 | -0.4% | i | -5% | i | 1e-09
55 | CNC(=O)CN(C1CCCCC1)S(=O)(=O)c1ccc(OC)c(Cl)c1 | 1.6% | i | -6% | i | 3.1e-08
56 | C=CCn1c(=O)c2ccccc2n2c(SCc3nc(N)nc(Nc4ccccc4C)n3)nnc12 | 0.0% | i | 1%[11.4 µM] | i | 1e-09
57 | O=C1C=CC2=C3c4cc(O)c(O)cc4C[C@@]3(O)COC2=C1O | x | i | 5% | i | 3.9e-09
58 | COCCCNC(=O)c1ccc2c(c1)ncn2-c1ccccc1OC | 0.6% | i | 8%[11.4 µM] | i | 2e-08
59 | COc1ccccc1NC(=O)CCN1CCN(CCC(=O)Nc2ccccc2OC)CC1 | 0.1% | i | -1% | i | 1e-09
60 | Cn1c(=O)c2c(ncn2CC(=O)N2CCN(c3ccccc3)CC2)n(C)c1=O | -1.6% | i | 0% | i | 2.4e-09
61 | CC(C)Sc1nc2c(c(=O)[nH]c(=O)n2C)n1C | -2.1% | i | 19% | i | 7e-09
62 | CCCCNC(=O)CCCn1c(=O)c2ccccc2n(CC(=O)NCCC2=CCCCC2)c1=O | -0.8% | i | 4% | i | 8.5e-09
63 | C=CCN(C(=O)CNC(=O)c1ccco1)C(C(=O)NC1CCCCC1)c1ccc(F)cc1 (configuration not stated) | 0.2% | i | u | i | 2.5e-09
64 | CCn1ccnc1C(O)c1cccc(OC)c1OC (configuration not stated) | -0.9% | x | 10% | x | x
65 | C[C@@H]1C(=O)N(C)C(=O)c2nc[nH]c21 | 0.5% | i | 3% | i | 1e-09
66 | CCCn1c(=N)n(CC(O)c2ccco2)c2ccccc21 (configuration not stated) | -1.1% | i | x | i | 9.2e-09
67 | COc1ccc(S(=O)(=O)N2CCCN(CCC(=O)Nc3cccc(C(F)(F)F)c3)CC2)cc1 | -0.5% | i | u | i | 4.2e-08
68 | CCc1nc(SCC(=O)N2CCC(C)CC2)c2c(=O)n(C)c(=O)n(C)c2n1 | -1.5% | x | u | x | x
69 | CN1C(=S)SC(C)(NO)C1(C)C (configuration not stated) | 0.5% | i | 3% | i | 1.1e-08
70 | O=C(Cn1cnc2c(cnn2-c2ccc(F)cc2)c1=O)N1CCN(c2ccccc2)CC1 | -0.5% | i | 5% | i | 5e-09
71 | CCOc1ccc(/C(O)=C2\C(=O)C(=O)N(CCN(C)C)C2c2cccc(OC)c2OC)cc1Cl (configuration not stated) | -0.3% | i | -7% | i | 1e-09
72 | COc1cccc(CNC(=O)C2CCCN(c3nc4ccccc4o3)C2)c1 (configuration not stated) | -1.4% | i | 20% | i | 2e-09
73 | O=C1NCCCc2nonc21 | -0.1% | i | 4% | i | 2.7e-08
74 | Cc1cc(-c2ccccc2)c2nncn2n1 | 0.1% | x | 7%[11.4 µM] | x | x
75 | COc1ccccc1Oc1cc(C#N)c(C#N)cc1-n1nnc2ccccc21 | -0.6% | i | u | i | 3.6e-08

An excerpt from above in order of heavy-atom count, high to low.
entry | canonical_smiles | AID923 | A488 fluor | TSHR agonist | Resorufin fluor | A647 autofl
75 | COc1ccccc1Oc1cc(C#N)c(C#N)cc1-n1nnc2ccccc21 | -0.6% | i | u | i | 3.6e-08
68 | CCc1nc(SCC(=O)N2CCC(C)CC2)c2c(=O)n(C)c(=O)n(C)c2n1 | -1.5% | x | u | x | x
69 | CN1C(=S)SC(C)(NO)C1(C)C (configuration not stated) | 0.5% | i | 3% | i | 1.1e-08
